FGF22 binding: FGF22 (human) thermal shift binding | calls only at 9.99 µM | Q9HCT0 | AID 651658 | recombinant FGF22 thermal shift, SYPRO orange fluorescence; percent of sucrose octasulfate shift, DMSO zero | 340,000 tested, 1.5% active;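 active = melting point raised past a set limit in the mean and every replicate; inconclusive = no clear call; three in four hits are not shown here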
Target sequence (Q9HCT0 whole entry, looked up): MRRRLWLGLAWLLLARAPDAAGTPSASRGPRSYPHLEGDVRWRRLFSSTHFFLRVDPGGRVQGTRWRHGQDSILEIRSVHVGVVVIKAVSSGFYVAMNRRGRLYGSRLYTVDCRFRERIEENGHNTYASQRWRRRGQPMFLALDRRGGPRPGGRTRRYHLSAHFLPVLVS
Beta apoptosis: blocks beta cell apoptosis; INS-1E cytokine-induced death, ATP luminescence, 48 h; percent of positive-control rescue, neutral wells zero; protection from apoptosis, % (concentration not given with the values); 300,000 tested, 0.8% active; AID 435005;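 active = all replicates at 75% or more, or half of them and the mean; inconclusive = half reach 75% but not the mean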;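 also: 0% = cytokine-treated negative control wells and 100% = positive control rescue; higher means more ATP so stronger rescue from cytokine killing; wells of about 40 µL received 100 nL stock; the first replicate is given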
MLL AF4-AF9 inh: inhibitors of human MLL-AF4/AF9 interaction | P42568 | AlphaScreen, biotin-AF4 peptide binding to FLAG-AF9 | inhibition, % at 10 µM | 350,000 tested, 0.47% active;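 active = every replicate reaching a set inhibition limit, whatever the replicate mean, cut at about 25% in these data; inconclusive = mean inhibition reaches that limit but some replicates miss it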;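 also: 0% = plate neutral control median and 100% = total signal loss; the record names both 10 and 1 µM as test concentration; the first replicate is given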
Target sequence (P42568 whole entry, looked up): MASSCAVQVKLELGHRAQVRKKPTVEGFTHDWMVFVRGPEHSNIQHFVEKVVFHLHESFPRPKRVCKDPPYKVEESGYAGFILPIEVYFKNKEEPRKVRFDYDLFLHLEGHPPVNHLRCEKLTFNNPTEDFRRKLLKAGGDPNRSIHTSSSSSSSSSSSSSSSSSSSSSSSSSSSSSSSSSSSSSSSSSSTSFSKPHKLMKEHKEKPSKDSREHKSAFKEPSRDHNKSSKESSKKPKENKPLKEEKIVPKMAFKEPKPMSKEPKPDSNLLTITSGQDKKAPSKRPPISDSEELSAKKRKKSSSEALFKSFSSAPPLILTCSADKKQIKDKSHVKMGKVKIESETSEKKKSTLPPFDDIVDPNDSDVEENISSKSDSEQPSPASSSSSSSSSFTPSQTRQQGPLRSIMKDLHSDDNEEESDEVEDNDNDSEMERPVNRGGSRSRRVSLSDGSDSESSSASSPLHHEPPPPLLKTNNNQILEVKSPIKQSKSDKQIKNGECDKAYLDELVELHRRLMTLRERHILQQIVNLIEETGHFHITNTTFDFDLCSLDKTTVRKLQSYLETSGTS
Calb FLC: C. albicans growth modulation with fluconazole; growth inhibition, % (no concentration beside the values); 300,000 tested, 0.57% active; C. albicans CaCi-2 (fluconazole-resistant clinical isolate) + fluconazole, Alamar Blue growth, 48 h;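 active = most replicates above 75%; inconclusive = exactly half above 75%; inactive = most below 75%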;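 also: all wells also contain fluconazole at 8 µg/ml as a sub-toxic cotreatment; 0% = median of DMSO wells and 100% = median of geldanamycin control wells; wells of about 8 µL received 7.5 nL stock; the first replicate is given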
ALR inh: inhibitors of human sulfhydryl oxidase ALR; inhibition, % (test concentration not listed); 290,000 tested, 3.8% active; purified ALR, DTT oxidation, H2O2 HRP-luminol luminescence; P55789;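 active = mean and each replicate at 75% or more; inconclusive = only one of the two met; inactive = neither met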;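 also: stock transfer was 7.5 nL into about 7.5 µL; 0% = neutral wells and 100% = wells with inactivated enzyme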
Target sequence (P55789 whole entry, looked up): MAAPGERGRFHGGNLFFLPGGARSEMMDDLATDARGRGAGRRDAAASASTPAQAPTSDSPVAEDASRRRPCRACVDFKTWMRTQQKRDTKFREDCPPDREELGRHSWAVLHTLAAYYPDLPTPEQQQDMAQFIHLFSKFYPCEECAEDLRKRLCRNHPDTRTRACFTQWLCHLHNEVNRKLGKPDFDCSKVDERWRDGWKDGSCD
RanGTP-Impb inh: disruptors of Ran-importin-beta complex formation – biochemical, FRET, CFP-Ran, YFP-importin-beta, homogeneous, primary screen; 300,000 tested, 1.1% active; cell-free CFP-Ran/YFP-importin-beta FRET ratio; inhibition, % (test concentration not listed);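 active = most replicates above 15%; inconclusive = exactly half above 15%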;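 also: 0% = DMSO wells and 100% = Ran loaded with GDP instead of GTP; wells of about 40 µL received 100 nL stock; the first replicate is given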
T cruzi inh: T. cruzi replication inhibition; T. cruzi beta-gal in NIH3T3, luminescence, 90 h; inhibition, % (concentration not given with the values); 300,000 tested, 1.4% active;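 active = mean inhibition across valid replicates above about 55%, limit read from the data; inconclusive = mean below that limit but half or more replicates reach it; inactive = mean below it, under half of replicates reach it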;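 also: signal also drops with host cell toxicity which is not excluded here; 0% = plate median of DMSO wells and 100% = zero luminescence signal; higher percent means less beta-gal luminescence so fewer parasites; stock transfer was 50 nL into about 50 µL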
rRNA inh HTS: inhibits bacterial ribosomal RNA function over humanized ribosomes; AID 720706; 350,000 tested, 1.6% active; E. coli WT GFP vs humanized-ribosome RFP mutants, fluorescence, 24 h; active compounds read low; DMSO median 0, no signal -100; GFP signal change (wild-type ribosome), % (no concentration beside the values);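 active = significant combined selectivity score with lowered wild-type GFP, culture density cut under 30%, mutant RFP and density less affected; inactive = any of these conditions unmet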; also: one replicate is shown; some compounds called inactive have numbers as strong as hits
rRNA inh HTS OD600: recorded beside rRNA inh HTS, whose call it bears; OD600 change, %; measured here: OD600 growth;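 optical density of the mix in the first replicate; 0 = DMSO median and -100 = no signal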
rRNA inh HTS RFP: second read-out of rRNA inh HTS, no call of its own (marks repeat the call); RFP signal change, %; measured here: RFP humanized mutant strains;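 first replicate; 0 = DMSO median and -100 = no signal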
Numbers without * were called inactive; i = inactive; u = inconclusive; x = not tested or not shown; + = active, no number. These rows are one share of the data (hit frequency here may not be typical).

Values run as follows: FGF22 binding	Beta apoptosis	MLL AF4-AF9 inh	Calb FLC	ALR inh	RanGTP-Impb inh	T cruzi inh	rRNA inh HTS	rRNA inh HTS OD600	rRNA inh HTS RFP
CCC(CO)N=CC1=C(O)CC(C)(C)CC1=O (stereo not given)
  x	3.9	x	-3.4	1.7	2.8	-10.0	x	x	x
Cn1cccc1/C=C1\CCc2ccccc2C1=O
  i	36.5	x	6.3	x	u	3.2	-25.9	-29.7	3.1
O=C1C(=O)N(CCN2CCOCC2)C(c2ccccc2F)/C1=C(\O)c1ccc(S(=O)(=O)N2CCOCC2)cc1 (stereo not given)
  i	1.6	-4.2	23.7	2.5	0.7	-8.2	3.1	5.0	0.2
O=C(NN=C1CCCCCCCCCCC1)c1cccnc1
  i	3.1	-0.2	-4.0	14.5	-0.9	-17.8	17.2	16.1	0.2
O=C(c1cc(-c2cccnc2)nc2ccccc12)N1CCCc2ccccc21
  x	-6.4	x	1.0	94.7*	-1.6	-7.7	x	x	x
CCOC(=O)c1nc(-c2ccc(OC)c(OC)c2)no1
  i	-4.2	-0.8	-9.5	0.5	4.7	-6.3	10.7	8.0	2.4
CC(NS(=O)(=O)c1ccc2c(c1)OCCCO2)C(=O)O (stereo not given)
  x	4.9	x	-2.6	-4.6	-0.4	-10.3	x	x	x
Cn1cccc1CC(=O)N/N=C\c1c2ccccc2cc2ccccc12
  x	0.0	x	16.0	-5.0	1.8	-9.1	x	x	x
O=C(Nc1ccc(S(=O)(=O)N2CCOCC2)cc1)c1ccco1
  x	1.8	x	-6.3	x	u	-2.8	x	x	x
CC(=O)Nc1ccc(S(=O)(=O)N(CC(=O)Nc2cc(C)on2)Cc2ccc(F)cc2)cc1
  i	1.9	2.2	-1.4	-1.6	-1.9	3.6	-24.2*	-17.6*	-4.1*
CC(=O)C1=C(O)C(=O)N(c2nccs2)C1c1ccccc1 (stereo not given)
  x	-8.6	x	4.1	15.7	1.2	-13.4	x	x	x
Cc1ccc(NC(=S)Nc2ccccn2)c(C)c1
  i	3.0	3.8	1.8	-6.6	-0.7	2.5	-16.6	-32.2	-4.8
O=C(NCc1ccncc1)Nc1ccc2c(c1)OCO2
  i	2.0	-0.4	12.4	0.9	5.6	3.8	13.1	7.4	1.5
O=C1c2cccc3cccc(c23)C(=O)N1CCCCCc1n[nH]c(=S)o1
  i	3.6	-1.2	19.3	37.1	8.1	18.6	12.9	-5.2	-5.9
COc1ccc(CCNC(=O)Cn2cnc3scc(-c4ccccc4)c3c2=O)cc1OC
  i	-0.8	-1.6	-6.2	-5.8	0.7	9.4	7.4	-1.4	-2.4
COc1ccc2[nH]c(=O)c3c(c2c1)OC(C)(C)C=C3
  x	-26.8	-9.6	5.4	-6.2	3.4	6.1	x	x	x
CC(NC(=O)C(=O)Nc1nccs1)c1ccccc1 (stereo not given)
  i	3.3	-0.7	-1.0	-4.0	0.8	-1.9	9.8	10.9	0.6
O=C(O)c1ccc(/C=N/Nc2ccc(F)cc2F)cc1
  i	-6.0	1.4	u	u	-0.1	-11.1	-4.4	-2.2	2.2
Cc1ccc(-c2c3c(=O)n(C)c(=O)n(C)c3cn2Cc2cccnc2)cc1
  x	-4.2	x	-2.4	-2.4	-1.5	-11.6	x	x	x
Cn1cc([N+](=O)[O-])c(C(=O)Nc2ccc3nc(-c4ccccc4)[nH]c3c2)n1
  +	-3.7	1.9	0.6	-10.1	4.3	-35.4	5.1	6.3	-0.8
Nn1c(SCC(=O)NC2CCCCC2)nnc1-c1ccccc1
  x	-0.1	x	3.4	-3.9	8.5	-7.4	x	x	x
O=C(NCC(=O)N1CCC(Cc2ccccc2)CC1)c1ccc(Cl)cc1
  i	3.6	0.3	16.8	-1.5	-2.2	3.8	-30.0	-52.9	-4.5
CCOc1ccc(S(=O)(=O)NCCC(=O)NCCOc2ccccc2OC)cc1
  i	-6.6	2.9	1.0	x	4.9	-6.3	4.9	5.0	0.2
COc1ccc(C/C(O)=C(\C#N)c2nc3ccccc3s2)cc1
  x	x	x	93.9*	2.6	-6.2	-11.2	x	x	x
Cc1cccc(OCC(=O)Nc2ccc(S(=O)(=O)N3CCCC3)cc2)c1
  x	-0.8	x	0.9	-3.4	-1.4	-19.3	x	x	x
CCCn1c(N)c(C(=O)CSc2nc3ncc(Cl)cc3[nH]2)c(=O)n(C)c1=O
  i	6.8	0.4	x	-1.3	x	x	21.8	11.4	0.0
CCCCn1c(N)c(N(CC)C(=O)c2cccc(OC)c2)c(=O)[nH]c1=O
  x	-2.8	-0.2	-26.0	9.2	4.4	-19.3	7.4	-0.6	1.7
Cc1ccc(Nc2cc(C)nc3nc(C)nn23)cc1
  i	1.5	1.2	2.4	-10.8	-3.4	-8.2	-5.1	0.7	-2.5
CC(C)CNC(=O)CC(=O)NN=C1CCCC1
  x	-3.4	x	-1.6	-0.9	2.9	-4.6	x	x	x
COc1ccc(Br)cc1CN1CCN(C(=O)c2ccco2)CC1
  i	-2.7	5.0	-6.3	-2.8	0.7	4.0	-5.4	-6.0	-7.8
CCC(C)(C)n1nnnc1C(c1cccc(C#N)c1)N1CCN(c2cccc(C)c2C)CC1 (stereo not given)
  x	-2.4	x	2.7	-1.3	-0.3	-10.1	x	x	x
Cc1cc(C)c2cc(C(=O)Nc3ccc4c(c3)OCO4)[nH]c2c1
  i	2.4	-3.3	5.2	-3.3	1.2	2.3	7.2	-10.3	3.4
COc1ccccc1CNC(=O)CCn1c(=O)[nH]c2ccsc2c1=O
  x	-6.4	x	-1.6	-5.9	1.7	0.3	x	x	x
CC1CC(=O)Nc2cc([N+](=O)[O-])ccc2N1 (stereo not given)
  i	2.4	-12.8	0.3	5.3	5.0	-7.8	3.6	4.8	1.2
COc1cccc(NC(=O)CCC2CCN(C(=O)c3cncs3)CC2)c1
  i	1.7	-0.8	-4.3	-13.2	2.8	-6.1	6.0	8.9	2.1
O=c1c2ccccc2nnn1CSc1nc2sc3c(c2c(=O)n1CC1CCCO1)CCC3 (stereo not given)
  x	-9.8	x	0.4	6.9	7.0	u	x	x	x
CC1(C)C/C(=N\O)C(C(O)c2cccc([N+](=O)[O-])c2)C(C)(C)N1 (stereo not given)
  i	-1.8	x	-4.7	-6.3	2.7	-13.4	19.9	14.5	4.1
Cc1cccc(C(C(=O)NC2CCCC2)N(C(=O)c2csnn2)C2CC2)c1 (stereo not given)
  i	-4.7	-5.1	5.3	2.2	2.2	-17.7	9.1	6.1	0.1
CCCN(C(=O)CSc1nnnn1C)c1c(N)n(Cc2ccccc2)c(=O)[nH]c1=O
  i	0.6	-0.4	-22.5	-29.6	-4.7	-2.3	6.9	3.1	-7.9
O=c1[nH]c(=S)n(-c2ccc(Br)cc2)c2ncccc12
  i	x	-2.5	-1.6	-2.7	-0.8	-5.4	-0.3	-1.5	-1.0
COc1ccc(SC[C@H](C)CN2CC[C@H](NC(=O)OCc3ccccc3)CCC2=O)cc1
  i	-5.2	2.9	x	u	x	x	-23.6	-40.8	17.2
COc1ccc(S(=O)(=O)N2CCN(CC(=O)Nc3cc(Cl)ccc3Cl)CC2)cc1
  i	-1.0	-4.3	x	x	x	x	1.3	5.5	-2.6
O=C(NC1CCCC1)C(c1ccccc1)N(C(=O)c1csnn1)C1CCCC1 (stereo not given)
  i	3.7	1.6	8.6	x	7.7	9.4	7.4	1.9	-1.5
COc1ccc2c(c1)sc(N)[n+]2Cc1cc(C)cc2cccnc12
  i	36.4	6.5	17.2	-16.4	2.9	-44.8	25.1	-16.2	-2.8
Cc1cc(C(=O)NC(Cc2ccccc2)C(=O)O)c(C)o1 (stereo not given)
  i	-0.9	1.0	8.9	x	5.8	4.5	6.3	15.3	3.8

A different layout for some results above:
mol: COc1cccc(NC(=O)CCC2CCN(C(=O)c3cncs3)CC2)c1
  FGF22 binding: i; Beta apoptosis: 1.7; MLL AF4-AF9 inh: -0.8; Calb FLC: -4.3; ALR inh: -13.2; RanGTP-Impb inh: 2.8; T cruzi inh: -6.1; rRNA inh HTS: 6.0; rRNA inh HTS OD600: 8.9; rRNA inh HTS RFP: 2.1

mol: O=c1[nH]c(=S)n(-c2ccc(Br)cc2)c2ncccc12
  FGF22 binding: i; Beta apoptosis: x; MLL AF4-AF9 inh: -2.5; Calb FLC: -1.6; ALR inh: -2.7; RanGTP-Impb inh: -0.8; T cruzi inh: -5.4; rRNA inh HTS: -0.3; rRNA inh HTS OD600: -1.5; rRNA inh HTS RFP: -1.0

Continuation.
Values run as follows: FGF22 binding	Beta apoptosis	MLL AF4-AF9 inh	Calb FLC	ALR inh	RanGTP-Impb inh	T cruzi inh	rRNA inh HTS	rRNA inh HTS OD600	rRNA inh HTS RFP
COc1cc(NC(=O)c2cc(Cl)ccc2Cl)ccc1-c1cc2ccccc2oc1=O
  x	-3.9	x	-24.8	0.3	6.8	35.0	x	x	x
Cn1nccc1C(=O)NC1CCCc2c1cnn2-c1ccccc1F (stereo not given)
  i	110.8*	-2.4	-4.5	3.3	1.4	-12.0	6.5	5.3	-3.8
CC1CCCN(CCOCCOc2ccccc2-c2ccccc2)C1 (stereo not given)
  i	2.4	6.1	-3.9	-0.1	-3.5	37.3	x	x	x
Cc1cc(C(F)(F)F)c2sc(N)nc2n1
  x	-5.5	x	14.4	0.8	3.9	-5.6	x	x	x
CCN1C(=O)[C@H]2[C@@H](c3ccc(SC4CCCCC4)cc3)N3CCCC[C@@]3(C(=O)OC)[C@H]2C1=O
  i	2.5	-1.8	10.5	-4.2	4.3	-2.5	5.1	5.0	-7.1
COc1ccccc1CCNC(=O)C(=O)NCC1CCCN1S(=O)(=O)c1ccccc1 (stereo not given)
  i	5.6	-0.9	1.0	2.1	2.0	18.8	-8.7	-11.2	1.5
COc1ccc(Cc2nnc(SCC(=O)Nc3ncc(C)s3)o2)cc1
  x	-4.5	x	-14.9	-5.0	0.6	-0.4	x	x	x
C1CCc2c(nc3nnnn3c2NCC2CC2)C1
  i	0.6	-3.3	4.4	12.4	1.6	15.3	8.3	10.1	-4.1
Cc1ccc(OCC(=O)Oc2ccc(C)c(C)c2)cc1
  i	-2.7	-3.4	32.9	4.9	-1.1	-9.6	20.9	15.4	-1.5
CCCCC(=O)NC(=S)Nc1ccc(NC(=O)C(C)C)c(OC)c1
  i	-0.6	-1.9	49.7	1.1	-1.6	-8.6	16.0	9.3	1.4

Source: PubChem BioAssay (Broad Institute)
